Bioassay records from PubChem BioAssay.
T cruzi repl: inhibitors of intracellular T. cruzi growth, primary screen, luminescence, NIH3T3 host cells; T. cruzi beta-gal in NIH3T3, 90 h; inhibition, % (test concentration not listed); 300,000 tested, 1.4% active; AID 1885, 2009;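 active = mean inhibition across valid replicates above about 55%, limit read from the data; inconclusive = mean below that limit but half or more replicates reach it; inactive = mean below it, under half of replicates reach it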;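 note: signal also drops with host cell toxicity which is not excluded here; 0% = plate median of DMSO wells and 100% = zero luminescence signal; higher percent means less beta-gal luminescence so fewer parasites; stock transfer was 50 nL into about 50 µL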
A1 inh: caspase 3/7 activation in MEF A1-2A-BIM cells, primary screen, A1 inhibitor project, cell-based, luminescence, HTS; AID 2462, 2010; Caspase-Glo 3/7 luminescence, 3 h; percent of clofoctol response, vehicle zero; 330,000 tested, 0.066% active; caspase activation, % (no concentration beside the values);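 active = over half of replicate activation scores above 10%, or exactly half above 10 with the replicate mean above 10; inconclusive = replicate mean below 10 yet half the replicates above 10; inactive = over half of replicates below 10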;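 note: wells of about 30 µL received 50 nL stock; many hits fall short of the cut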
LANA-H2B inh: blockers of LANA interaction with H2A/H2B – biochemical, FP readout, HTS, primary screen; 320,000 tested, 0.6% active; inhibition, % (concentration not given with the values); cell-free LANA-H2A/H2B peptide, fluorescence polarization; Protein LANA1 (Human herpesvirus 8 type P (isolate GK18)), Q9QR71; in the data active = inhibition mostly above about 10%, no sharp cut-off; inactive = mostly below about 6.7%;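 note: stock transfer was 7.5 nL into about 10 µL; 0% = median of vehicle wells and 100% = median of positive control wells; one replicate is shown; the record names a cut of 25% in any replicate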
Beta cell apopt: inhibitors of cytokine-induced beta cell apoptosis, primary screen, luminescence; 300,000 tested, 0.8% active; AID 435005, 2010; INS-1E cytokine-induced death, ATP luminescence, 48 h; percent of positive-control rescue, neutral wells zero; protection from apoptosis, % (concentration not given with the values);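 active = all replicates at 75% or more, or half of them and the mean; inconclusive = half reach 75% but not the mean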;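 note: 0% = cytokine-treated negative control wells and 100% = positive control rescue; higher means more ATP so stronger rescue from cytokine killing; wells of about 40 µL received 100 nL stock; the first replicate is given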
ALR H2O2 inh: inhibitors of human ALR sulfhydryl oxidase, primary screen, biochemical, H2O2 detection, HRP-luminol luminescence, single point; inhibition, % (no concentration beside the values); FAD-linked sulfhydryl oxidase ALR (Homo sapiens), P55789; purified ALR, DTT oxidation; 290,000 tested, 3.8% active; AID 485317, 2010;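 active = mean and each replicate at 75% or more; inconclusive = only one of the two met; inactive = neither met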;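 note: stock transfer was 7.5 nL into about 7.5 µL; 0% = neutral wells and 100% = wells with inactivated enzyme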
Target sequence (P55789 whole entry, looked up): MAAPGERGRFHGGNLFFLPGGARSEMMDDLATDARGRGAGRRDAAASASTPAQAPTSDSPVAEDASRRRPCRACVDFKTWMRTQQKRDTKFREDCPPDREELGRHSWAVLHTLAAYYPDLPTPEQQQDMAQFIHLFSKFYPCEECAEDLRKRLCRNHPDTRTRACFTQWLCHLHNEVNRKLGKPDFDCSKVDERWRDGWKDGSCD
B2AR ag: beta2AR agonists driving receptor internalization, primary screen, cell-based, FAP fluorogen, flow cytometry; response, % (no concentration beside the values); Beta-2 adrenergic receptor (Homo sapiens), P07550; 340,000 tested, 0.43% active; Am2.2-beta2AR cells; reference of the scale not given here;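 active = response above a set limit, near 3 SD of response in nonfluorescent compounds, cut at about 42% in these data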;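 note: stock transfer was 100 nL into about 11 µL; a reference agonist was the positive control; negative values mostly stem from fluorescent compounds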
Target sequence (P07550 whole entry, looked up): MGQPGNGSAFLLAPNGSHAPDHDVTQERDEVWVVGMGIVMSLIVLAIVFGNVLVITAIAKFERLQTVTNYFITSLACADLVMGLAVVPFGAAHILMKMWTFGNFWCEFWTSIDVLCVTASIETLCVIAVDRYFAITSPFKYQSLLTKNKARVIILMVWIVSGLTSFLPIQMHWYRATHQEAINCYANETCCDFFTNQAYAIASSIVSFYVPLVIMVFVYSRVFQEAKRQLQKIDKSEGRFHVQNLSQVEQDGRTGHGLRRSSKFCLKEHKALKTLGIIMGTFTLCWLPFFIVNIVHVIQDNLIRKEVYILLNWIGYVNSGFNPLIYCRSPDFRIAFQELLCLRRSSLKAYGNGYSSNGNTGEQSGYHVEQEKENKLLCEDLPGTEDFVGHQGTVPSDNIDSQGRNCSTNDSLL
Ecoli rRNA inh: reduced GFP signal of wild-type E. coli, primary screen, bacterial rRNA inhibitor project, GFP/RFP fluorescence, OD600, single point; AID 720706, 2013; 350,000 tested, 1.6% active; E. coli WT GFP vs humanized-ribosome RFP mutants, 24 h; hits give low values; DMSO median 0, no signal -100; GFP signal change (wild-type ribosome), % (test concentration not listed);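 active = significant combined selectivity score with lowered wild-type GFP, culture density cut under 30%, mutant RFP and density less affected; inactive = any of these conditions unmet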; note: one replicate is shown; some compounds called inactive have numbers as strong as hits
Calb FLC: C. albicans growth inhibition with fluconazole, primary screen, CaCi-2 strain, Alamar Blue fluorescence; C. albicans CaCi-2 (fluconazole-resistant clinical isolate) + fluconazole, 48 h; growth inhibition, % (concentration not given with the values); 300,000 tested, 0.57% active;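 active = most replicates above 75%; inconclusive = exactly half above 75%; inactive = most below 75%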;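 note: all wells also contain fluconazole at 8 µg/ml as a sub-toxic cotreatment; 0% = median of DMSO wells and 100% = median of geldanamycin control wells; wells of about 8 µL received 7.5 nL stock; the first replicate is given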
Ecoli rRNA inh OD600: further read-out of Ecoli rRNA inh, marked with its call; OD600 change, %; measured here: OD600 growth;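 optical density of the mix in the first replicate; 0 = DMSO median and -100 = no signal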
Ecoli rRNA inh RFP: further read-out of Ecoli rRNA inh, marked with its call; RFP signal change, %; measured here: RFP humanized mutant strains;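 first replicate; 0 = DMSO median and -100 = no signal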
* hit, by the source's call; ? = inconclusive; . = no result given.

SMILES	T cruzi repl	A1 inh	LANA-H2B inh	Beta cell apopt	ALR H2O2 inh	B2AR ag	Ecoli rRNA inh	Ecoli rRNA inh OD600	Ecoli rRNA inh RFP	Calb FLC
CC(C)Nc1ncnc2c1cnn2-c1ccccc1	3.7	-1.4	0.0	-5.1	.	2.5	-0.5	0.1	-3.3	-3.4
COc1ccc(C(=O)Oc2ccc(/C=N/NC(=O)c3cccnc3)cc2OC)cc1	.	-0.6	12.0	6.9	-0.5	2.3	.	.	.	.
CCC(=O)Oc1ccc2c(C)cc(=O)oc2c1C(=O)CC	-11.8	0.3	-2.7	-6.4	.	-0.1	0.5	-0.7	1.1	3.5
NC(=O)Cn1nc(-c2ccccc2)nc1-c1ccccc1	-5.1	0.4	0.7	-8.0	-2.2	0.5	11.2	-2.5	0.6	2.9
CC(C)N1CCC(N2CCN(CCCn3cccn3)CC2CCO)CC1 (stereo not drawn)	-3.5	0.2	-2.9	-12.1	.	-2.2	7.7	18.6	-0.2	-2.9
CCn1c(CC(=O)Nc2ccc(OC)cc2)nnc1SCC(=O)N1CCOCC1	-2.9	0.1	4.2	-1.4	-11.3	1.5	10.5	15.6	-0.8	-6.9
O=C(NNC(=O)c1c(F)cccc1F)c1ccccc1OC(F)(F)F	-6.7	0.2	-2.8	-18.2	-5.7	-1.0	7.0	15.7	-1.4	-7.9
CN(C)C1=NCCN1CCC1CCCCC1	.	0.2	0.6	-1.0	1.3	-8.1	16.8	22.6	-3.9	.
CC(=O)N[C@@H](Cc1ccc(OC(F)(F)F)cc1)C(=O)O	0.4	-0.5	2.5	-1.2	-8.4	7.1	12.3	-5.7	4.8	-2.2
Cc1ccc(N2C(=O)C3C4C=CC(CNC(=S)N5CCN(c6ccccc6)CC5)(O4)C3C2=O)cc1 (stereo not drawn)	7.5	0.6	2.5	0.0	19.4	-2.4	5.0	9.9	0.1	-3.0
O=C(Nc1cccc(S(=O)(=O)NC2=NCCC2)c1)c1c(F)cccc1Cl	-0.1	-0.4	-5.3	-2.2	.	1.0	3.9	2.0	-2.1	0.5
CSC1=NC2C(N1)N(C)C(=O)N2C (stereo not drawn)	-20.5	0.5	4.4	-4.0	.	-10.9	.	.	.	-24.1
Cc1c(C)c(C)c(S(=O)(=O)n2[nH]c(=O)c(CCO)c2C)c(C)c1C	9.3	0.4	1.2	-0.2	15.2	-5.3	-46.9	-62.1	21.9	0.9
CC1=C(C#N)C(=O)N(C)C(C)(C)C1	-21.3	0.8	0.2	2.5	-5.0	-1.5	.	.	.	3.4
CC(NC(=S)NCc1ccc(F)cc1)C12CC3CC(CC(C3)C1)C2 (stereo not drawn)	26.0	1.2	1.7	.	8.6	0.1	-22.2	-25.1	-0.7	-7.7
CCC1CCCCN1C(=O)CCC(=O)Nc1nnc(C(F)(F)F)s1 (stereo not drawn)	3.2	-0.3	-0.7	-0.6	-2.8	0.8	-0.7	8.0	-2.9	.
Cc1ccc(C(=O)OCC(=O)NCCC2=CCCCC2)cc1N	-21.9	0.8	-0.6	-2.9	-16.5	11.2	4.7	-0.7	-2.2	-20.6
CO/N=C(/c1nonc1N)N1CCN(c2ccc([N+](=O)[O-])cc2)CC1	2.9	0.9	-1.6	1.0	-14.1	-4.0	.	.	.	-5.5
COc1cc(-c2nnc(SCC(=O)OC3CCCCC3)o2)cc(OC)c1OC	10.0	-0.2	-6.2	-4.3	-2.1	17.2	.	.	.	-5.1
O=C(Cc1cccs1)NNC(=O)c1ccc(F)cc1	-8.9	0.1	1.3	0.9	-1.8	0.7	1.3	-7.8	-10.4	3.0
O=C(Cc1ccc(F)cc1)Nc1nnc(SCC(=O)NC2CCCC2)s1	-6.8	1.2	3.0	-9.7	-1.6	1.4	5.2	5.6	-4.3	-9.4
CC1/C(=N/O)CC(c2ccco2)NC1c1ccco1 (stereo not drawn)	-14.6	0.1	-9.0	1.6	7.9	2.2	7.5	9.9	6.3	-6.1
O=C(NCCC1=CCCCC1)C1CCC(CNc2c(N3CCCCC3)c(=O)c2=O)CC1 (stereo not drawn)	-9.9	-0.1	3.1	0.5	.	6.9	2.8	-0.9	-5.7	2.8
Clc1ccc(N=C2SCCS2)cc1	-7.6	-0.7	-3.0	-3.1	.	4.1	-1.4	-1.6	-4.9	-7.0
CC1=C(C)NC(=S)SC1	-10.3	0.1	0.7	-3.6	54.0	3.7	.	.	.	?
Cc1c(Cl)cccc1NC(=O)CCC(=O)NNC(=O)CCC(=O)O	-12.5	2.1	-1.6	1.4	-4.2	-2.0	23.7	24.4	6.8	-13.2
CC(C)[C@H](NC(=O)c1ccco1)C(=O)NC12CC3CC(CC(C3)C1)C2	15.7	-1.1	0.0	1.8	4.0	13.8	16.0	13.8	-4.1	-40.9
COc1ccccc1-c1nnc(SC(C(=O)c2c[nH]c3ccccc23)c2ccccc2)n1C (stereo not drawn)	40.9	0.0	1.4	5.1	-8.8	0.6	-20.1	-18.0	1.2	-14.9
COC(=O)C1CCN(C(=O)COC(=O)[C@@H]2CC(O)CN2S(=O)(=O)c2ccc3c(c2)OCCO3)CC1 (stereo partly drawn)	-22.1	0.0	-0.9	-12.7	-21.6	1.7	.	.	.	12.9
CN(CC(=O)Nc1cccc(F)c1)C(=O)c1ccc2c(=O)n3c(nc2c1)CCC3	-8.2	0.2	-3.3	4.0	-0.8	0.3	9.6	10.1	-0.9	-4.3
Cn1c(SCC(N)=O)nnc1-c1ccc(C(C)(C)C)cc1	8.5	1.7	-8.3	-4.0	-21.4	5.1	-3.5	5.5	-4.3	21.6
Cc1noc(NS(=O)(=O)c2ccc(NC(=O)c3cc(=O)c4ccccc4o3)cc2)c1C	0.1	0.8	2.1	-3.2	-28.8	-1.7	5.0	1.9	-1.7	-0.1
CCCCCCc1ccc(N2C[C@H](Cc3ccccc3)[C@@H](CC(=O)NCc3ccc(OC)cc3)C2=O)cc1	-7.9	0.5	-0.7	99.8*	-2.4	-2.4	20.6	10.8	-4.5	-10.4
CSc1nc(NS(=O)(=O)c2ccc(F)cc2F)nn1C	-8.3	1.8	5.0	-3.2	-2.9	-6.3	0.9	6.6	0.1	-3.5
CCOCCN1CCN(c2c(CC)c(C)nc3cc(-c4cc(OC)cc(OC)c4)nn23)CC1	15.5	1.2	-1.9	5.2	-7.1	-0.1	.	.	.	2.9
COc1ccc(CCC(=O)NCCS(=O)(=O)N2CCN(c3ccccc3)CC2)cc1	3.4	0.2	-3.8	-5.4	-1.1	2.8	0.1	11.0	-0.3	0.0
CN1CCN(C(=S)Nc2ccc(Cl)cc2Cl)CC1	3.1	-0.6	2.8	-13.1	.	3.8	.	.	.	?
CCn1c(SCC(=O)N2CCN(c3ccccc3)CC2)nnc1-c1cc2cc(Cl)ccc2o1	16.0	1.7	-1.0	0.1	-4.4	-3.4	.	.	.	7.0
CCCc1ccccc1OCCNC(C)=O	-8.6	2.2	-1.2	-4.9	7.4	-3.4	.	.	.	-0.2
COc1cc(C(=O)NC(C)c2ccc(S(N)(=O)=O)cc2)ccc1OCC(=O)N1CCOCC1 (stereo not drawn)	-17.5	-1.5	-9.8	-2.7	-8.2	3.3	8.3	16.7	3.2	4.5
Cc1cccc(NC(=O)CCn2nc(C)cc2C)c1	1.8	-1.1	-0.1	8.8	4.6	-7.8	.	.	.	-1.5
O=C(COc1ccc(Cl)cc1)OCC(=O)N1CCCCCC1	-9.3	0.7	0.1	-12.6	2.1	4.2	.	.	.	-10.0
O=[N+]([O-])c1ccc(N/N=C/c2ccccc2)c(F)c1	7.9	-0.9	0.7	6.3	-1.1	7.2	-13.5	-8.4	8.5	-4.2
CCOC(=O)[C@H]1[C@H]2COc3cc(OC)ccc3[C@@H]2N2C(=O)N(c3ccc(Br)cc3)C(=O)[C@@]12C	26.8	-0.1	0.2	6.0	-3.1	0.2	.	.	.	-0.4
Cc1ccc(S(=O)(=O)NCc2ccc3c(c2)OCO3)cc1C	-22.3	1.3	2.5	-0.1	.	7.2	-9.2	-12.0	-0.6	-5.1
CC(C)OC(=O)c1c(NC(=O)c2ccco2)sc2c1CCCCC2	21.1	1.1	-4.0	2.6	1.7	6.4	.	.	.	-4.1
CCSc1nc2sc3c(c2c(=O)[nH]1)CCc1ccccc1-3	20.7	-0.3	0.7	-0.4	-26.3	0.2	4.0	-4.2	3.2	-10.4
CNc1oc(-c2ccc(C)cc2)nc1P(=O)(c1ccccc1)c1ccccc1	25.5	0.2	-1.9	0.3	.	0.4	.	.	.	11.4
CC(=O)Oc1ccc(-c2nc3cc(Cl)ccc3c(=O)o2)cc1	-13.6	-0.2	-0.3	-2.5	-8.4	-5.9	7.6	-4.6	6.0	22.9
Cc1ccc(-c2c(C(=O)NC(C)C)oc(=O)c3ccccc23)cc1	3.2	0.2	1.0	3.1	?	9.0	-1.0	-0.6	-2.5	3.7
Cc1cc(NC(=O)CCC(=O)N(c2ccccc2)C(C(=O)NC2CCCC2)c2cccs2)no1 (stereo not drawn)	-6.4	-0.8	6.0	2.0	-18.2	-11.3	.	.	.	-2.9
COc1ccc(N(CC(O)Cn2c(C)nc3ccccc32)S(=O)(=O)c2ccccc2)cc1 (stereo not drawn)	-5.1	-0.9	3.1	2.9	-17.6	-8.0	.	.	.	1.9
CC1CCN(S(=O)(=O)c2cccc(C(=O)NC3CCCC3)c2)CC1	1.4	0.3	0.2	-1.7	-3.4	8.5	9.4	9.4	-0.6	-1.2
COc1ccc(C(=O)c2cc(C(C)=O)c(Nc3ccccc3)s2)cc1	24.3	0.6	-1.9	10.7	-9.1	6.8	.	.	.	-0.9
COc1ccc(CNC(=O)c2nnn(CC(=O)Nc3cc(C)cc(C)c3)c2N)cc1	4.5	-0.2	1.3	.	-4.6	-10.0	2.6	4.5	-1.3	-1.4
CCC(C)Oc1ccc(C(=O)Nc2ccc(CN3CCOCC3)cc2)cc1 (stereo not drawn)	-24.5	0.3	-3.1	.	-12.0	15.7	-0.9	-2.5	-3.6	9.7
COc1cccc(N2CC(C(=O)Nc3c(C(N)=O)oc4ccccc34)CC2=O)c1 (stereo not drawn)	4.5	-0.3	-1.0	-4.8	-42.6	7.0	-2.2	2.7	0.9	0.9

An excerpt; the hit share may differ from the screen's.
